MgrA-DNA mod – S. aureus MgrA-DNA binding modulation; hit rate 0.13% among 84,000; AID 602314; fluorescence polarization; inhibition, %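 (about 10 µg/mL by stock and volumes)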;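 active means above 50% in either of two replicates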;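 further: 0% = protein plus DNA without compound and 100% = DNA alone without protein; higher means less MgrA bound to DNA so lower polarization; one replicate is shown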
Sa helicase inh – S. aureus DNA helicase inhibition; purified S. aureus helicase, fluorescence unwinding assay; about half of the hits fall short of the stated cut; inhibition, %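 (tested at about 80 µM)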; hit rate 0.05% among 120,000; AID 485395;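 active means both duplicates at 50% or more, or one of them with a favoured structure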;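 further: 0% = mean of negative control wells and 100% = mean of positive control wells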
Starred values were filed as active, the others as inactive; nt = no result given.

compound,Sa helicase inh,MgrA-DNA mod
O=C(COC(=O)C1CC(=O)N(Cc2ccccc2)C1)Nc1ccc(Cl)cc1F (stereo unspecified),-6.0,nt
Cc1ccc2cc3cc(C(=O)NCCCN4CCN(Cc5ccccc5)CC4)oc3nc2c1,-23.0,nt
COc1ccccc1C(=O)Nc1ccc(C(O)(C(F)(F)F)C(F)(F)F)cc1,-8.0,nt
COc1ccc(C(=O)NCCc2nc(-c3ccccc3Cl)no2)cc1OC,16.0,-1.5
O=S(=O)(c1cccc2nonc12)N1CCCC1c1ccc(F)cc1 (stereo unspecified),nt,2.1
CC(=O)NC(Cc1ccc(C)c(C)c1)C(=O)O (stereo unspecified),nt,-4.2
O=C(NC1CCCCC1)C1CC(c2ccccc2O)=NO1 (stereo unspecified),7.0,-1.7
C=CCn1c(SCC(=O)Nc2nc(C)c(C)s2)nnc1-c1cc2cccc(OC)c2o1,-5.0,-2.7
O=C(c1cc(C(F)(F)F)cc(C(F)(F)F)c1)N1CC=CCC1,nt,4.8
O=C(c1sc2ccccc2c1Cl)N1CCc2ccccc21,4.0,0.1
O=C(CSc1ccc(-c2ccccn2)nn1)Nc1ccccc1,19.0,nt
O=C(CSC1=NCCc2ccccc21)c1ccccc1Cl,nt,0.2
O=C(CN1C(=O)c2ccccc2C1=O)Nc1ccccc1C(=O)O,-20.0,nt
CN1CCN(C)C1=O,5.0,nt
O=CN1CCN(C(=O)C(Cc2c[nH]c3ccccc23)NC(=O)c2cccs2)CC1 (stereo unspecified),-14.0,nt
Cc1nc2c3ccccc3nc(SCc3cc(F)cc4c3OCOC4)n2n1,7.0,1.8
COc1ccccc1OCc1nnc(SCC(=O)N2CCc3ccccc3C2)n1C,4.0,-2.4
CN(c1ccccc1)c1nc(-n2ccnc2)nc(-n2ccnc2)n1,2.0,-2.2
CC1(C)CC(=O)C2=C(C1)OC1=C(C(=O)CC(C)(C)C1)C2(C)C,nt,-2.3
COc1ccc(-c2nnc(SCC(=O)N3CCC(c4ccccc4)=N3)n2CC2CCCO2)cc1 (stereo unspecified),2.0,nt

Sorted by molecular weight (rising): part of the list above
compound,Sa helicase inh,MgrA-DNA mod
CC(=O)NC(Cc1ccc(C)c(C)c1)C(=O)O (stereo unspecified),nt,-4.2
O=C(NC1CCCCC1)C1CC(c2ccccc2O)=NO1 (stereo unspecified),7.0,-1.7
Cc1ccc2cc3cc(C(=O)NCCCN4CCN(Cc5ccccc5)CC4)oc3nc2c1,-23.0,nt
C=CCn1c(SCC(=O)Nc2nc(C)c(C)s2)nnc1-c1cc2cccc(OC)c2o1,-5.0,-2.7

The list goes on:
compound,Sa helicase inh,MgrA-DNA mod
O=c1sc(Nc2ccc(Cl)c(Cl)c2)nc2ccccc12,20.0,1.3
CCOc1ccc(C(CC(=O)O)N2Cc3ccccc3C2=O)cc1 (stereo unspecified),nt,-3.9
CC(C(=O)NC1CC2CCC1C2)N(c1ccccc1)S(C)(=O)=O (stereo unspecified),12.0,nt
Cc1ccccc1C(=O)NCc1ccc2c(c1)CCO2,-18.0,nt
CNC1CCC(C(F)(F)F)N(C)C1=O (stereo unspecified),-1.0,nt
Cc1onc(-c2ccccc2Cl)c1C(=O)NC1=NCCS1,9.0,-11.6
CCc1ccc(N(CC(=O)N=Nc2c(O)[nH]c3ccccc23)S(C)(=O)=O)cc1,19.0,nt
CN(C)S(=O)(=O)N1CCN(C(=O)c2cccs2)CC1,6.0,nt
O=C(C1CC1)N1CCc2cc(Br)cc(S(=O)(=O)NCCc3ccccc3Cl)c21,15.0,-4.6
O=C(Nc1c(C(=O)c2ccccc2)oc2ccccc12)c1ccco1,11.0,nt
CN(CCOc1ccccc1)Cc1nc2ccsc2c(=O)[nH]1,4.0,nt
O=C(Nc1ccccc1)Nc1ccc(NC(=O)c2ccccc2O)cc1,nt,0.4
CC(SCc1ccccc1)C(=O)O (stereo unspecified),nt,-0.5
COc1ccc(N2C(=O)NC(=O)/C(=C/c3ccc(-c4ccc(C(=O)O)cc4)o3)C2=O)cc1,nt,4.0
Cc1nn(C)c2[nH]c3c(c(=O)c12)CSC3,-6.0,nt
CC(C)(C)NC(=O)CCN1C(=O)c2ccccc2S1(=O)=O,13.0,nt
CC(C)(C)C(=O)NC(c1ccccc1)c1c(O)ccc2ccccc12 (stereo unspecified),3.0,-0.2
CCc1nnc(NC(=O)C2CCCCC2)s1,6.0,16.0
O=C(O)C1CCN(S(=O)(=O)c2ccc(Cl)cc2)CC1,-5.0,nt
Nc1cc(-c2ccccc2)ccc1O,1.0,-0.4
COc1ccc(-n2c(SCC(=O)c3ccc4c(c3)NC(=O)CO4)nc3ccccc3c2=O)cc1OC,-4.0,nt
O=C(NC1CC1)c1ccc(-c2ccccc2)cc1,-4.0,nt
FC(F)(F)c1cc(C(F)(F)F)n2nc(-c3ccccc3)cc2n1,nt,0.4
Cc1ccc(C(=O)C2COC(=O)C2)cc1 (stereo unspecified),5.0,0.7
COc1ccc(CN(C)C(=O)c2cccc(C)c2)cc1OC,25.0,nt
CSc1sc(C#N)c(C)c1-c1ccn(C(=O)c2ccc(Cl)cc2)n1,nt,2.2
O=C(O)CCc1cn(CCC(=O)O)cn1,8.0,-1.7
O=C(O)CCN1C(=O)SC(Nc2ccc(Cl)cc2)C1=O (stereo unspecified),-36.0,nt
CC1=C(C)CC2C(=O)N(c3ccc4c(c3)OCO4)C(=O)C2C1 (stereo unspecified),nt,-1.1
Cc1nc(Sc2ncn[nH]2)c2sc(=S)n(-c3ccccc3)c2n1,nt,0.0
CSc1ccccc1NC(=O)CN1CCN(C(C)=O)CC1,2.0,nt
O=C(Nc1nnc(CCOCCc2nnc(NC(=O)c3ccc([N+](=O)[O-])cc3)s2)s1)c1ccc([N+](=O)[O-])cc1,nt,0.4
COc1ccc(Cl)cc1N1C(=O)CC(NC(C)(C)C)C1=O (stereo unspecified),18.0,-0.1
Cn1cc(S(=O)(=O)N2CCc3ccccc32)cc1C(=O)N1CCOCC1,-3.0,nt
Cc1nc2ccc(S(=O)(=O)NC(CC(C)C)C(=O)NCc3cccs3)cc2s1 (stereo unspecified),-25.0,nt
CCn1cnc2cc(NCc3ccncc3)ccc21,0.0,nt
NC(=O)CCn1c(=O)oc2ccccc21,15.0,nt
CCOC(=O)C(Cc1ccccc1)N1C(=O)c2ccccc2C1=O (stereo unspecified),3.0,-0.2
CCC(=O)Nc1cc2nn(-c3ccc(Cl)cc3)nc2cc1C,22.0,nt
O=C(O)CCCCc1cccs1,nt,-0.6
CCN1CCN(c2ncnc3sc(C(=O)N4CCCC4)c(C)c23)CC1,17.0,nt
CC(=O)Nc1ncc2c(n1)CC(c1ccco1)CC2=O (stereo unspecified),21.0,nt
O=C1CCCN1C(=O)CSc1nnc(-c2ccccc2)c(-c2ccccc2)n1,4.0,nt
CN1N=Nc2ccc(Br)cc2C1c1ccccc1 (stereo unspecified),5.0,nt
CCCN1CCC(NCCc2ccccc2OC)CC1,-9.0,0.3
O=c1c2cc(NC(=S)NC3CCN(Cc4ccccc4)CC3)ccc2nc2n1CCCCC2,0.0,nt
O=S(=O)(N1CCOCC1)n1cnc2ccccc21,1.0,nt
COc1cc(NC(=O)C2CC3C=CC2C3)cc(OC)c1OC (stereo unspecified),-4.0,nt
O=C(CSc1ccccc1C(=O)O)NCCc1ccccc1,7.0,-1.8
C=CCN=C1NN=C(c2cc(C)n(CC=C)c2C)CS1,-20.0,nt

Going on with the list:
compound,Sa helicase inh,MgrA-DNA mod
CN(C)C(=O)COc1ccc2ccc(=O)oc2c1,10.0,nt
O=C(O)Cc1cc(=O)n(-c2ccccc2)[nH]1,6.0,nt
CC(=O)Nc1ccccc1OCC(O)CS(=O)(=O)c1ccc(C(F)(F)F)cn1 (stereo unspecified),nt,3.2
COC(=O)c1c(C)nc(C)c(C(=O)OC)c1-c1csc(S(=O)(=O)N2CCOCC2)c1,22.0,nt
CC1(C)SC(CNC(=O)Cc2ccccc2)NC1C(=O)O (stereo unspecified),nt,-0.6
N#CCS(=O)(=O)Cc1ccc(Cl)cc1,nt,-1.0
CN(Cc1ccco1)C(=O)CSc1nnc(Cc2ccccc2)o1,-6.0,nt
CCC(C)NC(=O)c1coc2nc3ccccc3nc12 (stereo unspecified),-20.0,nt
COc1ccc(-c2cc(-c3ccccc3)c(C#N)c(SCC3(O)CCCCC3S(C)=O)n2)cc1 (stereo unspecified),-12.0,nt
CS(=O)(=O)Nc1ccc(C(=O)NC23CC4CC(CC(C4)C2)C3)cc1,5.0,-1.6
Cc1cc(C)cc(C(=O)OCC(=O)Nc2cccc(C(F)(F)F)c2)c1,2.0,3.4
O=C(CCSCc1cnn(-c2ccccc2)c1-n1cccc1)NCC1CCCO1 (stereo unspecified),-10.0,1.4
COC(=O)C1=C(C)NC2=C(C(=O)CCC2)C1c1cn[nH]c1 (stereo unspecified),nt,-1.9
Cc1nc(=O)cc(-c2ccccc2)n1C,-14.0,nt
COC(=O)CCC1CCC(CCC(=O)OC)C1=O (stereo unspecified),nt,4.2
CNC(=O)c1c(C)nc(SCC(=O)Nc2ccccc2Cc2ccccc2)c(C#N)c1-c1ccco1,-17.0,nt
CCN(CC)C(=S)NC(=S)c1ccc(C)cc1,nt,2.0
Cc1ccc(OCc2ccc(C(=O)Nc3ncc(Br)s3)o2)cc1C,6.0,nt
COc1ccc(-c2cc(-c3ccccc3)nc(SCC(=O)N3CCCCC3)c2C#N)cc1,8.0,0.3
NCCCn1cncn1,0.0,-5.5
c1ccc2c(c1)C(=NN1CCOCC1)c1ccccc1-2,-6.0,nt
O=C1c2ccccc2C(=O)N1Cn1ncc(Cl)c(Cl)c1=O,-1.0,nt
COC(=O)c1scc(C)c1NC(=O)c1cccc(C#N)c1,nt,-0.4
Nc1nccc(-c2ccc(NC(=O)Nc3cccc(Cl)c3)cc2)n1,0.0,nt
O=C(NCc1ccccn1)c1cc(-c2ccccc2F)no1,6.0,nt
Cc1onc(-c2ccccc2Cl)c1NC(=O)NNC(=O)c1c(-c2ccccc2)noc1C,nt,-0.5
CC(C)c1ccc(NC(=O)C2CCC(CNS(=O)(=O)c3cccs3)CC2)cc1 (stereo unspecified),8.0,-1.8
O=C(CSc1nnnn1Cc1ccccc1)NCCc1ccccc1,-8.0,0.4
O=c1oc(-c2cc3ccccc3s2)ns1,6.0,7.4
Cc1cc(NS(=O)(=O)c2ccc(N3C(=O)C4C5C=CC(C5)C4C3=O)cc2)nc(C)n1 (stereo unspecified),3.0,1.0
O=C(CCC1CCCCC1)Nc1cc(Cl)ccc1N1CCOCC1,26.0,nt
COc1ccc(OCCSc2ncccn2)cc1,7.0,0.1
Cc1ccc(S(=O)(=O)NCC(=O)OCc2nnc(-c3ccccc3)o2)cc1C,-15.0,nt
CCC(C)NC(=O)C1CC1c1ccccc1 (stereo unspecified),18.0,4.0
CC(C)CNC(=O)c1ccc(N(C)C)cc1,7.0,nt
CC(OCCCN)c1ccccc1 (stereo unspecified),5.0,nt
COc1ccccc1CCN=C(N)NS(C)(=O)=O,3.0,nt
Cc1cc(C)nc(NCn2c(=S)sc3ccccc32)n1,-21.0,nt
Cc1ccc(NC(=O)CN(C)C(=O)c2cccc(S(=O)(=O)N3CCOCC3)c2)cc1,-7.0,nt
Cn1nccc1C(=O)Nc1ccc(CC#N)cc1,-8.0,nt
O=C1CCC(=O)N1CNc1ccc(-c2ccccc2)cc1,7.0,-5.7
CN(C)C(=O)CSc1nnc(Nc2ccccc2)n1-c1ccccc1,-1.0,3.0
N#C/C(=C\C(=O)O)c1cccs1,nt,3.4
c1cc2c(cc1NC1=NCCCCC1)OCCO2,1.0,1.8
COC(=O)c1c(C)noc1-c1ccc(C(F)(F)F)cc1,nt,-3.5
O=C(CO)c1ccc(Cl)cc1,nt,-12.1
COCCn1c(CCC(=O)O)ccc1-c1ccccc1,-22.0,nt
O=C(Cn1c(=O)n(-c2ccccc2)c(=O)c2sccc21)NCc1ccco1,6.0,2.2
C=CCN1C(=Nc2ccccc2)SC/C1=C\C(=O)OC,15.0,nt
Fc1ccc(C2=NNC3=NCCN3C2)cc1F,nt,-0.8

Next entries follow:
compound,Sa helicase inh,MgrA-DNA mod
COc1ccccc1C(=O)COC(=O)c1ccc(Br)cc1,-22.0,3.3
Nc1ccn(-c2ccccc2)n1,0.0,nt
N#CC1(NC(=O)CSc2nnc(-c3cccs3)n2C2CC2)CCCCC1,-7.0,nt
O=S(=O)(c1ccccc1)c1nc(-c2ccco2)oc1Nc1ccccc1,6.0,-0.8
COC(=O)c1ccc2c(c1)sc1nc(-c3ccc(OC)cc3)cn12,3.0,-7.8
COc1ccc(-c2c(C)oc3cc(OCCN4CCOCC4)ccc3c2=O)cc1,2.0,nt
CCCCN1C(=O)c2ccc(C(=O)C(C#N)c3nc4ccccc4[nH]3)cc2C1=O (stereo unspecified),2.0,nt
Cc1cc(C(=O)NCc2nnc3ccccn23)c(C)o1,-6.0,nt
Cc1cccc(NC(=O)Cc2csc(C)n2)c1,-35.0,nt
Nc1c(-c2ccccc2)cnn1-c1ccc2c(C(F)(F)F)cc(C(F)(F)F)nc2n1,nt,-0.6
Cc1ccc(-n2ncc3c(NC(C)C)ncnc32)cc1,22.0,nt
CC(C)Cn1c(SCC(=O)N(C)C2CCCCC2)nc2ccccc2c1=O,-16.0,nt
Cc1[nH]n(-c2nc3ccccc3[nH]2)c(=O)c1C1OC(=O)c2ccccc21 (stereo unspecified),11.0,11.7

An excerpt; the hit share may differ from the screen's.
